VDR inh = Inhibitors of the vitamin D receptor (VDR): qHTS; AID 504847, 2011; hit rate 0.93% among 400,000; Potency, µM, inactives show max response, negative = inhibition, actives largely listed as inhibitors; Vitamin D3 receptor (Homo sapiens), P11473; VDR-SRC2-3 peptide fluorescence polarization, 2 h; active = well fitted inhibition curve with a large enough effect; inconclusive = small, poorly fitted or top-dose-only effect, or another doubt; inactive = no such curve, though single readings can be large or run the other way; also: series mostly up to about 120 µM
Target sequence (P11473 whole entry, looked up): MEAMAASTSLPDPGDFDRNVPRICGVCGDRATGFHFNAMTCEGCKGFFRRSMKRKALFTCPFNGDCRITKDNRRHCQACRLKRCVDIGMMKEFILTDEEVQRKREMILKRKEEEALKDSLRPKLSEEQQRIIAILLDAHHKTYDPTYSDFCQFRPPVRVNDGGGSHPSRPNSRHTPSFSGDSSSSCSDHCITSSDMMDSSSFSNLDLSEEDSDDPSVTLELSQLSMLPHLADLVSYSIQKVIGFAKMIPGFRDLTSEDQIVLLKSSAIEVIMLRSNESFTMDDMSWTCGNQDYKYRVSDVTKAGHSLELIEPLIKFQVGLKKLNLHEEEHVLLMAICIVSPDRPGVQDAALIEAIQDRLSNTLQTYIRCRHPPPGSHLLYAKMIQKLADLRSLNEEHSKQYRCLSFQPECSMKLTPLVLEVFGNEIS
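Inhibition of the VDR/SRC2-3 peptide interaction is quantified by fluorescence polarization. Compounds (23 nl, pintool) incubate with the reagents for 2 hours at ambient room temperature.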
Starred values were filed as active, the others as inactive; ? = inconclusive; & = joins results of further samples; [ ] = dose if it differs, or a comment. % is scaled to controls: 0 for no effect and ±100 for the full control effect; potency is read from the fitted curve at half-maximal effect. Some of the compounds tested, so the mix of outcomes need not match the whole.

SMILES	VDR inh
Cc1cccc(NC(=O)CSc2nnc3[nH]c(=O)cc(-c4ccccc4)n23)c1C	12%
O=C1c2ccccc2C(=O)N1CCN1CCCCC1	-6%
COc1ccc([C@H]2CC(=O)C=C(c3ccc(OC)nc3)C2)cc1	-14%
CCc1ccc(OCC(=O)N/N=C(\C)c2ccc(OC(F)F)cc2)cc1	-1%
CN(C)S(=O)(=O)c1cc(NC(=O)CNCc2ccccc2)ccc1Cl	-10%
COC(=O)c1cccc(NC(=O)CCc2cc(OC)c(OC)c(OC)c2)c1	-27%
CCN(CC(=O)Nc1ccc2c(c1)OCCO2)Cc1cc(=O)oc2c(C)c(C)ccc12	-8%
CCOC(=O)c1nc(Nc2ccccc2)c2ccccc2n1	-6%
CCOC(=O)c1ccc(NC(=O)C(=O)NCC2(c3ccc(OC)cc3)CCOCC2)cc1	-6%
O=C(O)c1ccc(NC(=O)c2ccc3c(c2)C(=O)N(CC2CCCO2)C3=O)cc1 (stereo not drawn)	7%
COc1ccccc1NS(=O)(=O)c1ccc2oc(N)nc2c1	0%
COC(=O)Cn1c(=NC(=O)C2COc3ccccc3O2)sc2cc(S(N)(=O)=O)ccc21 (stereo not drawn)	-8%
CN(CC(=O)Nc1ccc2c(c1)OCO2)S(=O)(=O)c1ccc(F)cc1	11%
CC(=O)Nc1ccc(N2CCN(C(=O)c3cccs3)CC2)cc1	-5%
C/C(=N\NC(=O)c1c(Cl)c(C)nn1C)c1cccc(NC(=O)COc2ccccc2)c1	-11%
CCCOc1ccc(C(O)CCNC(CC(=O)O)c2ccccc2)cc1 (stereo not drawn)	12%
Cc1ccc2nsnc2c1S(=O)(=O)N(Cc1ccco1)Cc1cc2cccc(C)c2[nH]c1=O	15%
CN(CC(=O)O/N=C(\N)c1ccccn1)S(=O)(=O)c1ccc(Br)cc1	2%
COC(=O)Nc1ccc(S(=O)(=O)N2CCCC(C(=O)NCC3CCCO3)C2)cc1 (stereo not drawn)	-2%
O=C(c1ncn(Cc2ccccc2)c1C(=O)N1CCN(c2ccccc2)CC1)N1CCN(c2ccccc2)CC1	-3%
CC(C)c1ccccc1NC(=O)Cn1c(-c2ccccc2Cl)nc2ccccc21	-7%
CN(C)c1ccc(NC(=O)CCCc2ccccc2)cc1	-15%
O=C(CN(Cc1ccccc1)C(=O)CCl)c1cccc(Br)c1	?
CC(C)C[C@H](NC(=O)c1nc[nH]c1C(=O)N(C)Cc1ccccc1)C(=O)OCc1ccccc1	-26%
NC(=O)CN1CCN(S(=O)(=O)c2ccc(Br)cc2)CC1	-18%
COc1ccc(OCC(=O)Nc2ccccc2C(=O)NC(C)C)cc1	-11%
COc1cccc2sc3ccc(C#CC4(N)CCCCC4)cc3c(=O)c12	-3%
N#Cc1c(-c2ccccc2)cc(-c2ccc(O)cc2)nc1N	-18%
Cc1ccc(NC(=O)COC(=O)CCn2c(C)csc2=O)c([N+](=O)[O-])c1	14%
C=CCc1cccc(CNc2nc3ccccc3n2C)c1O	1%
Cc1cccc(NC(=O)C(c2ccccc2Cl)N2CCOCC2)c1 (stereo not drawn)	-6%
O=C1NC(=O)/C(=C\c2ccc(Cl)nc2)S1	?
CCOc1ccc(C(=O)N2CCC(c3nc4ccccc4o3)CC2)cc1	15%
O=C1c2cccc3cccc(c23)C(=O)N1Cc1ccccc1	-15%
O=C(NCCN1CCOCC1)/C(=C/c1ccc(Cl)cc1)NC(=O)c1ccccc1	5%
O=C(NCC1CCCO1)c1cncc(Br)c1 (stereo not drawn)	-27%
CCOc1ccc(NC(=O)C2CCCN2C(=O)Oc2ccccc2)cc1 (stereo not drawn)	1%
CN(CCO)c1cc(N2CCC3(CC2)OCCO3)c2nonc2c1[N+](=O)[O-]	3%
CCC(Sc1nc(N)c(NC(=O)c2ccc(Br)o2)c(=O)[nH]1)C(=O)O (stereo not drawn)	-21%
CC1(c2ccc(OCC(N)=O)cc2)NC(=O)NC1=O (stereo not drawn)	9%

Copied from the list:
VDR inh with `CCC(Sc1nc(N)c(NC(=O)c2ccc(Br)o2)c(=O)[nH]1)C(=O)O` (stereo not drawn) : -21%
VDR inh with `O=C(O)c1ccc(NC(=O)c2ccc3c(c2)C(=O)N(CC2CCCO2)C3=O)cc1` (stereo not drawn) : 7%
VDR inh with `O=C(c1ncn(Cc2ccccc2)c1C(=O)N1CCN(c2ccccc2)CC1)N1CCN(c2ccccc2)CC1` : -3%
VDR inh with `CCc1ccc(OCC(=O)N/N=C(\C)c2ccc(OC(F)F)cc2)cc1` : -1%

The list continues.
SMILES	VDR inh
O=C(NCc1ccccc1)C1(c2ccccc2)CCN(S(=O)(=O)c2ccccc2)CC1	8%
COc1cc(/C=C(/C#N)C(=O)Nc2ccccc2)c(Br)cc1OCc1ccc(C(=O)O)cc1	50µM*
Cc1nc2ccccc2nc(=O)c1NNc1ccc([N+](=O)[O-])cc1	-4%
Cc1nc(C/C(=N\N)c2ccc(O)cc2O)cs1	4%
CC(C)Oc1ccc(C2CC(=O)N(c3ccc(C(=O)O)cc3)C2=O)cc1 (stereo not drawn)	-10%
Cc1cc(Nc2ccc(Br)cc2)nc2ccccc12	8%
CCOC(=O)/C=C1/SCC(=O)N1CC(=O)Nc1ccccc1OC(F)F	13%
O=C(COC(=O)C12CC3CC(CC(O)(C3)C1)C2)NCc1ccco1	-9%
O=C(NC1CCS(=O)(=O)C1)C1CCCN(S(=O)(=O)c2ccc(Cl)cc2)C1 (stereo not drawn)	-15%
CCOCC(=O)NC1CCc2cc(OC(=O)COCC)c(OC)c(OC)c2-c2ccc(SC)c(=O)cc21 (stereo not drawn)	-18%
Cc1cccc(NS(=O)(=O)c2ccc(C(=O)NCC(c3ccccc3)N(C)C)cc2)c1C (stereo not drawn)	6%
COc1ccc(C2NC(=O)c3n[nH]c(C)c32)c(OC)c1 (stereo not drawn)	-10%
COc1cccc(C(=O)N(Cc2ccco2)c2c(N)n(Cc3ccccc3)c(=O)[nH]c2=O)c1	-3%
COc1cc(-c2c(C#N)c(=O)[nH]c3c2c(C)nn3-c2ccccc2)ccc1O	?
CC(C)(C)c1ccc(OCCNC(=S)NC(=O)c2cccnc2)cc1	-16%
C=CCN(c1ccc(C(=O)N2CCN(c3ccc(F)cc3)CC2)cc1)S(C)(=O)=O	19%
S=C(NCCc1ccccc1)Nc1ncccn1	2%
CCCCNC(=O)CN1C(=O)COc2ccc(S(=O)(=O)N3CCCCCC3)cc21	12%&-8%
Cc1cccc(-c2noc(CCC(=O)NCCc3ccccc3)n2)c1	-7%
COc1cccc(C(=O)C2CCCN(Cc3cn(C)nc3-c3ccccc3)C2)c1 (stereo not drawn)	-1%

A run of entries from the list above, for reference:
SMILES	VDR inh
O=C(NCc1ccccc1)C1(c2ccccc2)CCN(S(=O)(=O)c2ccccc2)CC1	8%
COc1cc(/C=C(/C#N)C(=O)Nc2ccccc2)c(Br)cc1OCc1ccc(C(=O)O)cc1	50µM*

Continued.
SMILES	VDR inh
CN(Cc1ccsc1)C(=O)Cn1cc(Br)ccc1=O	34%[activator]
CC12CCC(C(=O)Nc3nccs3)(OC1=O)C2(C)C (stereo not drawn)	1%
CCCc1c2ccccc2nc2ccccc12	-19%
CC1CCC2(CC1)NC(=O)N(CC(=O)c1cccn1C)C2=O (stereo not drawn)	-12%
O=C(NCC(c1ccc2c(c1)OCO2)N1CCOCC1)C(=O)Nc1cccc(Cl)c1 (stereo not drawn)	3%
COc1ccc(-c2sc3cc4c(cc3c2C#CCO)OCO4)cc1	-9%
CC(C)(C)C(=O)NC(=S)Nc1ccccc1C(=O)Nc1ccccc1	-4%
Cc1cccc(C)c1N1CCN(CCn2c(=S)[nH]c3ccccc3c2=O)CC1	-2%
CC(C)n1c(SC2CCOC2=O)nc2ccccc21 (stereo not drawn)	-9%
CCc1nc(OCc2ccco2)c2sc3nc4c(cc3c2n1)COC(C)(C)C4	-20%
O=C(Nc1ccccc1N1CCCCC1)C1CCN(C(=O)c2ccc(Cl)cc2)CC1	5%
Cc1cc(C(=O)NN=Cc2ccc(-c3ccc(F)cc3)o2)c(C)o1	-3%
COc1ccc2oc(=O)cc(CN3CCN(Cc4ccccc4)CC3)c2c1	3%
Cc1ccc(-n2nc(C(=O)Nc3ccc(C)c(F)c3)c3c4ccccc4n(C)c3c2=O)cc1	-4%
CNC(=S)N/N=C/c1ccco1	11%
Cc1cc(S(=O)(=O)NCCc2ccccc2)ccc1-n1cnnn1	8%
COc1cc(C2CC(=O)Nc3c2c(=O)n(C)c(=O)n3C)cc(OC)c1OC (stereo not drawn)	7%
O=C(NNC(=O)c1cccs1)c1ccncc1	-9%
OC[C@@H]1[C@@H](c2ccc(Cl)cc2)C(c2ccc(F)cc2)=NN1c1ccccc1	?
Cc1cccc(NC(=O)c2ccc(S(=O)(=O)N(C)c3ccccc3)cc2)n1	10%

Some of the entries so far, with the structure last.
| VDR inh | compound |
| --- | --- |
| 3% | COc1ccc2oc(=O)cc(CN3CCN(Cc4ccccc4)CC3)c2c1 |
| -4% | Cc1ccc(-n2nc(C(=O)Nc3ccc(C)c(F)c3)c3c4ccccc4n(C)c3c2=O)cc1 |
| 11% | CNC(=S)N/N=C/c1ccco1 |
| 8% | Cc1cc(S(=O)(=O)NCCc2ccccc2)ccc1-n1cnnn1 |
| 7% | COc1cc(C2CC(=O)Nc3c2c(=O)n(C)c(=O)n3C)cc(OC)c1OC (stereo not drawn) |

More structures:
SMILES	VDR inh
Cn1cc(C(=O)N2CCN(C(=O)c3ccco3)CC2)c2c3ccccc3n(C)c2c1=O	-7%
CCOC(=O)c1sc(SC)c2c1CCCC2=O	7%
COc1ccc(NC(=O)NCCCN2CCCC2=O)cc1	-5%
CCOC(=O)C1CCN(C(=O)c2ccc(N3CCCC3=O)cc2)CC1	16%
O=C(Nc1ccccc1C(F)(F)F)N1CCC(CN2CCc3ccccc3C2)CC1	19%
CCOC(=O)C1=C(COC(=O)/C=C/c2cccc(Cl)c2)NC(=O)NC1C (stereo not drawn)	-2%
Cc1ccc(CNCc2ccco2)cc1	0%
CN(/N=C/c1cc([N+](=O)[O-])ccc1O)c1ccccc1	-25%
O=C(NC1CCCCCCC1)C1CCN(c2nc3ccccc3o2)CC1	-7%
Cc1cc(C)n(C(=O)c2ccc(C)c(F)c2F)n1	-8%
Cc1ccc(C)c(/C=N/Nc2ccccn2)c1	-10%
O=S(=O)(c1ccccc1)N1CCN(c2nc(-c3ccc(F)cc3)nc3cc(Cl)ccc23)CC1	-19%
CCN1c2ccccc2-c2nc(SCC(=O)Nc3cc(C)c(Cl)cc3OC)ncc2S1(=O)=O	0%
COC(=O)c1ccc(N2C(=O)C3CC(C)=C(C)CC3C2=O)cc1 (stereo not drawn)	8%
COc1ccc(C)cc1NC(=O)C1CCCCC1C(=O)O (stereo not drawn)	-8%
COc1ccc(C2CC(c3ccc4ccccc4c3)=NN2C(=O)CN2CCC(C(N)=O)CC2)cc1 (stereo not drawn)	-8%
CC(C)(C)c1ccc(C(=O)Nn2c(CCC(=O)O)ccc2-c2cccs2)cc1	-15%
CC(C)[C@H](NC(=O)c1ccccc1)C(=O)OCC(=O)N1CCN(C(=O)c2ccco2)CC1	-1%
N/C(=N\OC(=O)c1cccc(Cn2cc(C(F)(F)F)ccc2=O)c1)c1ccc(Cl)cc1	8%
COc1cccc(NC(=O)C2CCN(S(=O)(=O)c3ccccc3)CC2)c1	11%
CCN(CC)S(=O)(=O)c1cccc(NC(=O)c2cncc(Br)c2)c1	3%
CCOc1ccc(NC2=CC(=O)CCC2)cc1	4%
CC12CCC(C(=O)N3CCC(Cc4ccccc4)CC3)(C(=O)C1=O)C2(C)C (stereo not drawn)	-4%
Cc1cccn2c(=O)c(/C=C(\C#N)S(=O)(=O)c3ccccc3)c(N3CCN(C)CC3)nc12	-8%
CCSC1=NCCN1S(=O)(=O)c1ccc(NC(C)=O)cc1	-8%
Cc1ccc(Cn2c(-c3nonc3N)nc3ccccc32)cc1	14%
CC(C)C[C@@H](CC(=O)N[C@@H](CCC(=O)O)CC(=O)O)NC(=O)[C@@H]1CCCC[C@H]1NC(=O)C[C@@H](NC(=O)C[C@H](Cc1ccccc1)NC(=O)[C@@H]1CNCC[C@H]1N)C(C)C	4%
O=C(NNc1ccccc1C(F)(F)F)c1sccc1Cl	-6%
CCOC(=O)C1=C(c2ccccc2)NC(SCC(N)=O)=C(C#N)C1c1cccnc1 (stereo not drawn)	4%
CC(OCC(O)CN(C)Cc1nc2ccccc2c(=O)[nH]1)c1ccc(Cl)cc1 (stereo not drawn)	-10%
CCn1c(C(=O)N2CCCC(C(=O)NCCCOC)C2)cc2sccc21 (stereo not drawn)	16%
Cc1ccc(S(=O)(=O)N2CCCSCC2)cc1	-6%
Nc1ccc(C(=O)Nc2ccc3nc(-c4cccnc4)[nH]c3c2)cc1	-1%
Cn1c(N)c(C(=O)CSc2nnc(C3CC3)n2N)c(=O)n(C)c1=O	5%
Cn1c(=O)c2cc(S(=O)(=O)NCCC(=O)Nc3ccc(Cl)cc3)ccc2n(C)c1=O	6%
O=C(CN(C(=O)CCC(=O)Nc1ccccn1)c1ccc2c(c1)OCO2)NCc1ccco1	21%
CCn1c(SCC(=O)Nc2cc(C)on2)nnc1-c1ccncc1	13%
COc1ccc(C(=O)CCS(=O)(=O)c2ccc(C)cc2)cc1	?
Cc1nn(Cc2ccc(F)cc2)c2sc(C(=O)Nc3ccccc3N3CCOCC3)cc12	-8%
CCOCCCNC(=O)CCn1nc(-c2ccc(Cl)cc2)ccc1=O	-28%
Cc1cccc(OCC(=O)Nc2c(C(=O)N3CCN(c4ccccc4F)CC3)oc3ccccc23)c1	9%
COc1ccccc1N(CC(=O)N(c1ccccc1)C(C)C)S(=O)(=O)c1cccs1	7%
Cc1nc2cnc(OCc3ccccc3)nc2n(C)c1=O	-1%
CCN1C(=O)[C@@H]2[C@@H](c3ccc(-c4ccc(OC)cc4)cc3)N3CCCC[C@@]3(C(=O)OC)[C@@H]2C1=O	-14%

With a hit mark in VDR inh, among the entries above:
SMILES	VDR inh
COc1cc(/C=C(/C#N)C(=O)Nc2ccccc2)c(Br)cc1OCc1ccc(C(=O)O)cc1	50µM*

Screening results deposited in PubChem BioAssay by National Center for Advancing Translational Sciences (NCATS).
